CDC25B-CDK2 inh: human CDC25B-CDK2/CyclinA binding inhibition; P30305+P24941; HTRF CDC25B-CDK2/CyclinA binding, anti-His/anti-Flag; hits give high values; 94,000 compounds, 0.72% hits; z-score (test concentration not listed);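 further: score is relative to mean and SD of negative controls; strong numbers were not always called active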
TAR Tat displ: HIV-1 TAR-Tat binding disruption. 100,000 compounds, 0.6% hits. z-score (concentration not given with the values). HIV-1 TAR RNA, Tat peptide displacement FRET; hits give high values;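 further: score is relative to mean and SD of negative controls; some compounds called inactive have numbers as strong as hits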
The depositor's hits bear a star; . = not tested or not shown.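 How the source made its calls: active means z-score from 3 up in half or more of its runs; inactive means the rest.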

SMILES	CDC25B-CDK2 inh	TAR Tat displ
O=S1(=O)N=CNc2ccc(S(=O)(=O)NCc3ccccc3)cc21	.	-6.4
COC(=O)C1=NNC2C(=O)N(c3ccccc3Br)C(=O)C12 (configuration not stated)	-0.89	2.9
Cc1ccc2oc3c(c(=O)c2c1)C(c1ccc(O)cc1)N(c1nc(C)c(C)s1)C3=O (configuration not stated)	-1.5	-0.82
COCCN1C(=O)C(=O)/C(=C(/O)c2ccccc2)C1c1cc(OC)ccc1OC (configuration not stated)	-2.1	1.5
N#C/C(=C\c1ccc(C#N)cc1)C(=O)Nc1cc(C(F)(F)F)ccc1Cl	-1.4	.
Cc1ccc(C(=O)Nc2nnc(SCc3cc(=O)n4ccsc4n3)s2)cc1	.	0.67
O=C(Nc1ccccc1F)c1nc2ccccc2nc1Cl	-2.2	-0.41
Cc1ccsc1CCNS(=O)(=O)c1ccc(CN2C(=O)c3cccnc3C2=O)cc1	.	1.2
CC(=O)N1CCC(N(C(=O)Nc2ccc(Br)cc2)C(C)C)CC1	-1.5	0.53
O=c1c2c(nc3nc(-c4ccccc4)[nH]n13)CCCC2	-0.87	-0.51
CCN1CCN(c2nc(N(CC)CC)nc(N)c2[N+](=O)[O-])CC1	.	0.44
COc1ccc(CC(=O)n2[nH]c(=O)c3ccccc3c2=O)cc1OC	-0.62	.
O=C(CSc1nccn1C1CCCCC1)Nc1cccc(Cl)c1	.	1.5
CCOc1ccc2nc(SCC(=O)O)nc(C)c2c1	-1.4	.
N#C/C(=C\c1ccccc1[N+](=O)[O-])c1ccccc1	-1.3	.
Cc1ccc(-n2c(-c3cnccc3C(F)(F)F)noc2=O)c(C)c1	-2.3	.
Cc1cc(-c2ccc(S(=O)(=O)NCc3ccc(C)o3)s2)n[nH]1	.	-4.7
CCN(C(=S)Nc1ccccc1OC)c1ccccc1	-1.2	.
Cc1nc2nc[nH]n2c(=O)c1NS(=O)(=O)c1ccc(C2CCCCC2)cc1	0.18	-0.21
CCCc1nc(-c2ccc(-c3cccc(OC)c3)nc2OC)no1	-0.91	-1.4

Looked up above.
O=C(Nc1ccccc1F)c1nc2ccccc2nc1Cl in TAR Tat displ = -0.41
O=c1c2c(nc3nc(-c4ccccc4)[nH]n13)CCCC2 in CDC25B-CDK2 inh = -0.87
CCN(C(=S)Nc1ccccc1OC)c1ccccc1 in CDC25B-CDK2 inh = -1.2
Cc1nc2nc[nH]n2c(=O)c1NS(=O)(=O)c1ccc(C2CCCCC2)cc1 in TAR Tat displ = -0.21
O=C(CSc1nccn1C1CCCCC1)Nc1cccc(Cl)c1 in TAR Tat displ = 1.5

4 compounds from above, sorted by number of heavy atoms, smallest number first.
SMILES	CDC25B-CDK2 inh	TAR Tat displ
CCOc1ccc2nc(SCC(=O)O)nc(C)c2c1	-1.4	.
Cc1cc(-c2ccc(S(=O)(=O)NCc3ccc(C)o3)s2)n[nH]1	.	-4.7
O=C(CSc1nccn1C1CCCCC1)Nc1cccc(Cl)c1	.	1.5
N#C/C(=C\c1ccc(C#N)cc1)C(=O)Nc1cc(C(F)(F)F)ccc1Cl	-1.4	.

Structures from the list above that have a cyano group:
SMILES	CDC25B-CDK2 inh	TAR Tat displ
N#C/C(=C\c1ccc(C#N)cc1)C(=O)Nc1cc(C(F)(F)F)ccc1Cl	-1.4	.
N#C/C(=C\c1ccccc1[N+](=O)[O-])c1ccccc1	-1.3	.

Source: PubChem BioAssay
